# Source: PubChem BioAssay (ICCB-Longwood Screening Facility, Harvard Medical School)
# HCMV NEC inh: inhibitors of HCMV UL50-UL53 interaction, biochemical, HTRF; 190,000 tested, 0.15% active; normalized percent inhibition; HCMV UL50-UL53 nuclear egress complex (human cytomegalovirus); inhibition, % (no concentration beside the values);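 active = both replicates at 50% or more, plus weaker picks with an unusually low signal ratio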;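 also: stock transfer was 100 nL into about 20 µL; 0% = negative control wells and 100% = wells with untagged competitor protein; inactives centre near -12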
# Sa growth inh: S. aureus growth inhibition at 42 and 30 °C, primary screen, LtaS inhibitor project, RN4220, two temperatures; OD600, 20 h, 42 °C; hits give low values; relative growth, % (no concentration beside the values); 170,000 tested, 0.53% active;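 active = growth at 42 °C up to 50% and 20 or more points under that at 30 °C, or under 10% at both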;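 also: 300 nL library stock went into each well; scaled to the means of positive and negative controls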
# GIV Gai3 FP: inhibitors of GIV peptide binding to Galpha-i3, primary screen, biochemical, fluorescence polarization, FITC-GIV GBA peptide, rat Galphai3 | Guanine nucleotide-binding protein G(i) subunit alpha-3 (Rattus norvegicus), P08753 | 90 min; hits give low values; scaled: aluminum fluoride 0%, vehicle 100% | percent of control (FP), % (test concentration not listed) | 210,000 tested, 0.42% active;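 active = replicate mean at 85% of control or lower, very high polarization wells dropped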;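 also: wells of about 15 µL received 100 nL stock; the first replicate is given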
# Target sequence (P08753 whole entry, looked up): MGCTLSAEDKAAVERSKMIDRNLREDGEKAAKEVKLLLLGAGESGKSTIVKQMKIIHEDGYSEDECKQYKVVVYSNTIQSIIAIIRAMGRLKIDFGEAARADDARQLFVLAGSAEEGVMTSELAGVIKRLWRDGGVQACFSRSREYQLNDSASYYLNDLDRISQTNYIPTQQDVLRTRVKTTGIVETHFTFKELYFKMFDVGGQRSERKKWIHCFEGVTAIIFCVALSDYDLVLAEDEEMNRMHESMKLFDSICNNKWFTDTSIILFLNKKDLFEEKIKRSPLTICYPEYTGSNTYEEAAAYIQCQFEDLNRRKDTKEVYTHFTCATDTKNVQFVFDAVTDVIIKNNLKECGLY
# Sa growth inh second temp: recorded beside Sa growth inh, whose call it bears; relative growth, %; measured here: growth at 30 °C;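 optical density after 20 h as mean of two plates; 100% = untreated growth and lower means inhibition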
# Starred values were filed as active, the others as inactive; . = no result given.
SMILES,HCMV NEC inh,Sa growth inh,Sa growth inh second temp,GIV Gai3 FP
CCOC(=O)C1=C(O)CSC1=Nc1ccccc1,-6,77,83,.
O=C(N=C1c2ccccc2CN1c1ccc(F)c(F)c1)c1cccnc1,-29,134,79,.
CC1(C)CC(=O)c2sc3nc(-c4ccc(Cl)cc4)cn3c2C1,.,105,79,106
O=C(O)CCNc1cc(C(=O)O)ccc1C(=O)O,-9,97,92,100
COc1ccc2cc(COC(=O)c3c(OC)cccc3OC)c(Cl)nc2c1,-26,103,83,.
CC(C)NC(=O)Cc1ccc(-n2c(=O)c3ccccc3n(CC(=O)Nc3ccc4c(c3)OCO4)c2=O)cc1,-10,.,.,108
Cc1nn2c3ccccc3nc2n1CCN1CCCCC1,-12,94,93,.
COC(=O)c1ccc([C@@H]2Nc3c(C)cc(C)cc3[C@@H]3C=CC[C@@H]32)cc1,-36,105,81,112
CCCCn1c(C(C)N2CCCC2)nc2ccccc21 (stereo not drawn),14,.,.,120
COc1ccc(NC(=O)c2sc3nc4c(cc3c2N)CCCCCC4)cc1,-25,121,81,111
COc1ccc(CCNS(=O)(=O)c2cc(-c3cc(C)no3)ccc2OC)cc1OC,.,107,87,101
COc1cc(OC)c([N+](=O)[O-])cc1/C=C1\C(=O)NC(=O)N(c2ccc(Br)cc2)C1=O,-22,.,.,109
CCC(Nc1ccc(Br)cc1)C(=O)N/N=C/c1ccco1 (stereo not drawn),-53,83,58,102
CCOC(=O)c1c(CN2CCN(c3ccccc3)CC2)n(C)c2cc(Br)c(OC)cc12,-22,.,.,97
Oc1ccc(-n2cccc2)cc1,-2,84,93,.

# Next section; the last 2 above are carried over.
SMILES,HCMV NEC inh,Sa growth inh,Sa growth inh second temp,GIV Gai3 FP
CCOC(=O)c1c(CN2CCN(c3ccccc3)CC2)n(C)c2cc(Br)c(OC)cc12,-22,.,.,97
Oc1ccc(-n2cccc2)cc1,-2,84,93,.
Cc1nc2scc(C)n2c(=O)c1S(=O)(=O)Nc1ccc(N2CCN(C(=O)C(C)C)CC2)cc1,12,97,102,107
CCc1cccc(NC(=O)CN(C)S(=O)(=O)c2ccc3nc(-c4ccccc4)[nH]c3c2)c1,-149,.,.,102
Cc1sc2nc(SCc3nc(-c4cccs4)no3)n(-c3ccccc3)c(=O)c2c1C,.,93,95,98
COc1cc(C2C(C(=O)Nc3ccc(Cl)cc3)=C(C)Nc3nc(SC)nn32)cc(OC)c1OC (stereo not drawn),-66,84,88,104
COc1ccc(S(=O)(=O)N(CC(=O)NC(C)c2ccccc2)c2ccc(C)cc2)cc1OC (stereo not drawn),-41,105,81,102
Cc1[nH][nH]c(=O)c1Sc1nc2ccccc2[nH]1,-13,104,92,.
Clc1ccc(CSc2ccc(-c3cccs3)nn2)cc1,.,93,80,105
COc1cc(OC)cc(C(=O)Nc2ccc3oc(-c4cccc5c(Br)cccc45)nc3c2)c1,-54,102,92,103
O=c1oc2c3ccccc3c3oc(=O)sc3c2s1,-41,76,70,90
COC(=O)c1sccc1S(=O)(=O)N(CC(=O)Nc1ccccc1F)c1ccccc1,.,90,91,102
O=C(O)C1CC1(C(=O)O)C(F)(F)F (stereo not drawn),-15,95,87,100
COc1ccc(OC)c(C(=O)CSc2nc3ccccc3o2)c1,-12,72,89,.
O=c1c2c(nc3nc(CNc4ccc(Br)cc4)[nH]n13)CCC2,-16,.,.,120
O=C(Nc1ccc(-n2cnnn2)cc1)C1CC(=O)N(C2CCCC2)C1 (stereo not drawn),-21,71,93,.
O=C(ON(C(=O)c1ccccc1)c1ccccc1)c1ccccc1,-14,77,92,.
CCCC(N)c1cccs1 (stereo not drawn),-16,100,87,103
Cc1cc(C(=O)O/N=C(\N)c2ccc(C(C)(C)C)cc2)no1,-12,101,93,105
CC(C)Cc1nnc2sc(-c3cnccn3)nn12,-35,.,.,101
CNC(=O)c1ccc(C(=O)N(C(C)C)C(C)C)cc1,3,101,118,103
O=C1C2CCC3(CC2C(=O)N1Cc1ccccc1)OCCO3 (stereo not drawn),-8,.,.,97
CN1CCCN(C(=O)c2ccccc2Br)CC1,-18,103,93,.
CCc1cc(C(=O)O)c(NC(=O)c2cccc(C)c2)s1,-18,103,55,.
COc1ccc(-c2cccc(NC(=O)c3ccccc3)c2)nn1,-12,96,90,101
COc1ccc(-c2nc3ccccc3c(=O)n2NCc2ccccc2Br)cc1OC,6,.,.,106
CC1CN(C(=O)C2CCCCC2)C(C)CN1C(=O)C1CCCCC1 (stereo not drawn),.,104,85,101
COC(=O)c1ccc(-n2nnnc2SCCCC(=O)c2ccc(F)cc2)cc1,.,84,85,98
COc1cccc(-c2cc(C(=O)N(C)c3ccccc3)no2)c1,.,120,88,105
COc1cc(C=C2C(=O)NC(=S)NC2=O)cc(Cl)c1OCCOc1cccc(C)c1,7,.,.,111
CCOc1ccc(-n2c(=O)c3sccc3n(CC(=O)NC3CCCC3)c2=O)cc1,.,112,92,101
C=CC[n+]1ccc(/C=C/c2ccccc2O)c2ccccc21,.,34,1,128
CCOc1ccccc1-c1nc(C(N)=O)c2c(n1)n(-c1ccc3c(c1)OCO3)c(=O)n2C,.,112,89,100
COc1ccccc1-c1c(C)nn2c(SCC(=O)NCCN(C)C)cc(C)nc12,18,.,.,103
COc1ccc(CCn2c(C)cc(C(=O)Cn3cnc4c(oc5ccccc54)c3=O)c2C)cc1,-14,85,90,.
CCOCCCNc1nc2nc3ccc(C)cn3c(=O)c2cc1C(=O)NC1CCCCC1,-42,95,85,105
CC1(C)CC(NC(=O)Cc2ccccc2)CC(C)(C)N1,5,125,93,.
Cc1ccc(CNc2ccc(-c3nc(-c4ccncc4)no3)cc2[N+](=O)[O-])cc1,-7,92,92,97
CCCS(=O)(=O)N1CCN(Cc2ccc(OC)c(OCC)c2)CC1,-14,131,102,100
CC(=O)c1cccc(NC(=O)CN(c2cc(C)cc(C)c2)S(=O)(=O)c2c(C)noc2C)c1,-25,96,82,104
CC(C)N(Cc1nnc(-c2ccccc2)o1)C(=O)COc1ccc(C#N)cc1,2,102,94,.
Cc1ccc2occ(CC(=O)N(Cc3ccccc3Cl)C3CCS(=O)(=O)C3)c2c1 (stereo not drawn),-18,111,75,106
Cc1ccc(NC(=O)Cn2c(=O)n(-c3ccc(Cl)c(Cl)c3)c(=O)c3c(C)c(C)sc32)c(C)c1,-8,103,87,99
CCc1nc2ccccc2n1Cc1ccccc1,9,103,78,100
Cc1cc(C)c2c(n1)sc1c(=O)n(C(C)(C)C)nnc12,-11,99,68,108
CC(C)OC(=O)Cn1cc(C#N)c2ccccc21,-7,90,80,.
Nc1ccn([C@@H]2O[C@H](CO)[C@@H](O)[C@@H]2O)c(=O)n1,-4,.,.,108

# Some values from the entries so far:
# GIV Gai3 FP, Cc1ccc(NC(=O)Cn2c(=O)n(-c3ccc(Cl)c(Cl)c3)c(=O)c3c(C)c(C)sc32)c(C)c1 reads 99
# HCMV NEC inh, COc1ccccc1-c1c(C)nn2c(SCC(=O)NCCN(C)C)cc(C)nc12 reads 18
# Sa growth inh second temp, CC1(C)CC(NC(=O)Cc2ccccc2)CC(C)(C)N1 reads 93
# Sa growth inh second temp, COc1ccc(CCn2c(C)cc(C(=O)Cn3cnc4c(oc5ccccc54)c3=O)c2C)cc1 reads 90
# Sa growth inh, CCCS(=O)(=O)N1CCN(Cc2ccc(OC)c(OCC)c2)CC1 reads 131

# (list continues)
SMILES,HCMV NEC inh,Sa growth inh,Sa growth inh second temp,GIV Gai3 FP
COc1cc(/C=c2\sc3nc4ccccc4n3c2=O)ccc1OC(=O)c1cccs1,-13,.,.,115
Cc1ccc(NS(=O)(=O)c2cc(Br)cc3c2N(C(=O)C2CC2)CC3)cc1C,.,102,90,98
CCOC(=O)C1CCN(C(=O)Cn2nc(C)n3c(cc4c(OC)cccc43)c2=O)CC1,-16,91,93,96
Cc1ccc(S(=O)(=O)Cc2ccc(C(=O)N3CCC(C(N)=O)CC3)o2)cc1,-27,92,86,105
C=C(C)CN1CCN(c2cc(C)nc3c(C)c(-c4ccc(Cl)cc4)nn23)CC1,-28,.,.,108
Clc1ccc(SCc2csc(N3CCOCC3)n2)cc1,0,116,109,100
CC(C)(C)NC(=O)c1ccccc1C(=O)NC(C)(C)C,2,101,105,101
CC1CN=C(NC2CCCCC2C)S1 (stereo not drawn),-28,109,91,.
O=C(O)CC1C=C(Cl)S(=O)(=O)C1 (stereo not drawn),7,93,97,.
CSc1ncccc1C(=O)OCC(=O)Nc1ccccc1C(=O)NC1CC1,1,107,97,.
Cc1ccc(Cn2c(C(=O)NCc3ccccc3)cc3sccc32)cc1,.,126,106,103
Cc1cc(C)c2c(N)c(C(=O)Nc3ccc(S(N)(=O)=O)cc3)sc2n1,-11,.,.,98
Cc1cccc(Cn2c(=O)n(Cc3ccc4c(c3)OCO4)c(=O)c3oc4ccccc4c32)c1,.,110,87,104
COc1ccc(OCc2nn3c(C(F)(F)F)nnc3s2)cc1,-20,79,89,104
COC(=O)c1ccc(OC)nc1,-16,94,91,.

# One compound at a time, as listed above:
# COC(=O)c1sccc1S(=O)(=O)N(CC(=O)Nc1ccccc1F)c1ccccc1 is listed with HCMV NEC inh: .; Sa growth inh: 90; Sa growth inh second temp: 91; GIV Gai3 FP: 102
# O=c1oc2c3ccccc3c3oc(=O)sc3c2s1 is listed with HCMV NEC inh: -41; Sa growth inh: 76; Sa growth inh second temp: 70; GIV Gai3 FP: 90

# Remaining list, next part
SMILES,HCMV NEC inh,Sa growth inh,Sa growth inh second temp,GIV Gai3 FP
CCOc1cc(C2C3=C(CC(c4ccc(OC)c(OC)c4)CC3=O)Nc3onc(C)c32)ccc1O (stereo not drawn),-13,.,.,105
C=CC(=O)Nc1ccc(Br)cc1,42,101,103,100
Cc1ccc(/C=C2\SC(=O)NC2=S)o1,-55,36,8,46*
COC(=O)c1ccc(C2Nc3cccc4cccc(c34)N2)cc1,.,128,86,100
COCCn1c(SCC(=O)NCc2ccc3c(c2)OCO3)nnc1-c1c[nH]c2ccccc12,-32,86,74,99
CCc1ccc(CNC(=O)c2cnc3sc(N4CCCC4)nn3c2=O)cc1,.,108,87,105
COC(=O)C1C(c2ccccc2)C(C(=O)O)C1c1ccccc1 (stereo not drawn),-6,102,107,104
c1ccc(-c2nn(-c3ccccc3)c3c2cnc2ccccc23)cc1,.,109,94,105
O=C(O)C1CCCCC1C(=O)N1CCN(S(=O)(=O)c2cccs2)CC1 (stereo not drawn),-33,106,104,101
CCCNC(=O)c1ccccc1NS(=O)(=O)Cc1ccccc1,-12,94,98,112
CCc1ccc(OC(C)C(=O)NCCc2csc(-c3ccccc3)n2)cc1 (stereo not drawn),-15,.,.,98
O=C(CSCc1ccccc1Cl)N/N=C/c1ccc(O)cc1O,-8,70,33,109
O=C(Nc1ccc(Br)cc1F)c1cc(S(=O)(=O)NC2CCCC2)ccc1F,.,117,102,110
CCc1ccc(C2CC(=O)Nc3c(S(=O)(=O)c4ccccc4)csc32)cc1 (stereo not drawn),12,.,.,103
C=CCN1C(=O)/C(=C2\SC(=S)N(CC(=O)O)C2=O)c2cc(Br)ccc21,.,91,60,98
O=C(CCCn1ncn2c(cc3occc32)c1=O)NCCc1ccccc1,.,93,80,104
CCO/C=C1/C(=O)N(c2ccc(OC)cc2)C(=O)c2ccccc21,-37,108,90,.
Cc1ccc(Cn2c(SCc3cccc(C)c3)nc3cccnc32)cc1,22*,.,.,106
NC(Sc1nc(=O)n(Cc2ccccc2)c2c1CCC2)c1cccc2ccccc12 (stereo not drawn),0,.,.,104
Cc1ccc2oc(=O)n(Cc3ccccc3Cl)c2c1,7,94,96,100
COc1cccc(CNC(=O)C2CCCN(S(=O)(=O)c3cn(C)cn3)C2)c1 (stereo not drawn),.,85,87,102
N#Cc1cccn1-c1ccccc1F,-20,104,92,106
Cc1ccc2nc(-c3ccc(NC(=O)[C@@H]4CCCC[C@@H]4C(=O)O)cc3)sc2c1,-58,149,100,.
CCN1C(=O)/C(=C2/C(=O)N3c4c(cc(OC(=O)c5cccs5)cc42)C(C)=CC3(C)C)SC1=S,-5,109,87,.
CCC(C)N(Cc1cn(CC)c2ccccc12)C(=O)Nc1ccc(Cl)c(Cl)c1 (stereo not drawn),.,89,89,110
COCCN(CCOC)S(=O)(=O)c1ccc(C(=O)Nc2nc3c(C)cc(C)cc3s2)cc1,-26,.,.,97
CNC(=O)C1CCN(S(=O)(=O)c2c(C)noc2/C=C/N(C)C)CC1,.,95,94,107
CCOC(=O)c1cc(-c2ccccc2)n(CC(=O)Nc2nc3ccc(Cl)cc3s2)c1C,.,85,92,104
O=C(Oc1ccccc1)n1c(=S)oc2ccccc21,-9,94,87,100
Cc1ccc(S(=O)(=O)Nc2ccc3nc(-c4cccnc4)[nH]c3c2)cc1,-24,105,83,104

# GIV Gai3 FP: what is marked active above.
compound	Sa growth inh second temp	GIV Gai3 FP
Cc1ccc(/C=C2\SC(=O)NC2=S)o1	8	46*

# (continued)
SMILES,HCMV NEC inh,Sa growth inh,Sa growth inh second temp,GIV Gai3 FP
O=C(CSc1nc2ccccc2s1)Nc1ncc2c(n1)CC(c1ccco1)CC2=O (stereo not drawn),-7,103,82,111
Cc1cccc(C(=O)NCCN2CCN(c3ccccc3)CC2)c1,-2,.,.,108
Cc1cc(C(=O)Cn2cnc3sccc3c2=O)c(C)n1C1CC1,8,91,95,.
O=c1cc(NCc2cccs2)[nH]c(=O)n1Cc1ccc(F)cc1,-3,86,83,99
COC(CN(C)C(=O)c1ccc(CNS(=O)(=O)c2ccc(C)cc2)cc1)OC,-14,107,90,104
